Screens deposited in PubChem by Broad Institute.
Yeast UUG start – alters start codon recognition fidelity in yeast; S. cerevisiae UUG-firefly luciferase reporter, luminescence/redox ratio; actives 0.13% (n = 350,000); AID 602363; activity score, % at 18.7 µM;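 active = replicate mean at a twofold rise or more, about +100% in these data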;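 also: firefly luciferase made from a UUG start codon reports start codon fidelity; reporter light over untreated wells divided by growth signal over untreated wells; some hits fall short of that in this replicate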
Env fusion inh – HIV envelope-mediated fusion inhibition | actives 1.1% (n = 360,000) | HeLa-JRFL Env/CEM21 cell fusion, luciferase | AID 651610 | inhibition, % at 12.3 µM;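 active = mean replicate inhibition score of at least 50 and every replicate individually at or above 50; inconclusive = only one of the two criteria met; inactive = mean below 50 and not all replicates reaching 50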;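 also: 0% = plate neutral controls and 100% = maraviroc near 300 nM; one replicate is shown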
* = called active by the depositor; [ ] = another dose, or the depositor's remark. These rows are one share of the data (hit frequency here may not be typical).

How did CCCNC(=O)N(C)C[C@H]1Oc2cc(C#Cc3ccccn3)ccc2S(=O)(=O)N([C@H](C)CO)C[C@H]1C do in these assays?
Yeast UUG start: 46; Env fusion inh: -1[16.7 µM]

What do the screens show for `COC(=O)[C@@]1(CCS(=O)(=O)c2ccccc2)COC(c2ccc(OCCCO)cc2)=N1`?
Yeast UUG start: -1; Env fusion inh: 8[16.7 µM]

What do the screens show for `COc1ccc(CN(C)C[C@H]2Oc3ccc(NC(=O)C4CC4)cc3CC(=O)N([C@H](C)CO)C[C@H]2C)cc1`?
Yeast UUG start: -15; Env fusion inh: -22[16.7 µM]

What do the screens show for `CCCC#Cc1ccc([C@@H]2[C@@H](C#N)N(C(=O)C3CCC3)[C@@H]2CO)cc1`?
Yeast UUG start: 5; Env fusion inh: 3[16.7 µM]

How did O=C(NCC[C@@H]1CC[C@H](NS(=O)(=O)c2cccc(F)c2)[C@H](CO)O1)c1cnccn1 do in these assays?
Yeast UUG start: -12; Env fusion inh: -6[16.7 µM]

Results for C[C@@H]1CCCCO[C@@H](CN(C)S(=O)(=O)c2ccc(Cl)cc2)[C@@H](C)CN([C@@H](C)CO)C(=O)c2cc(NS(C)(=O)=O)ccc2O1 ?
Yeast UUG start: 26; Env fusion inh: -13[16.7 µM]

How did COCC(=O)Nc1ccc2c(c1)C(=O)N(C)[C@H]1CC[C@H](CC(=O)Nc3cn(C)nc3C)O[C@H]1CO2 do in these assays?
Yeast UUG start: -23; Env fusion inh: 14[16.7 µM]

How did C[C@H](CO)N1C[C@H](C)[C@H](CN(C)Cc2ccc3c(c2)OCO3)OCCCC[C@H](C)Oc2ccc(NS(=O)(=O)c3cn(C)cn3)cc2C1=O do in these assays?
Yeast UUG start: 12; Env fusion inh: 3[16.7 µM]

How did COc1ccc(NC(=O)Nc2ccc3c(c2)[C@@H]2C[C@@H](CC(=O)N[C@@H](C)c4ccccc4)O[C@@H](CO)[C@@H]2O3)cc1 do in these assays?
Yeast UUG start: 7; Env fusion inh: 0[16.7 µM]

Results for CCCNC(=O)N1[C@H](C#N)[C@H](c2ccc(C#Cc3ccc(F)cc3)cc2)[C@H]1CO ?
Yeast UUG start: -19; Env fusion inh: 25[16.7 µM]

How did C[C@@H]1CCCCO[C@@H](CN(C)C(=O)c2ccncc2)[C@H](C)CN([C@H](C)CO)C(=O)c2cc(NS(=O)(=O)c3ccc(Cl)cc3)ccc2O1 do in these assays?
Yeast UUG start: 10; Env fusion inh: -26[16.7 µM]

How did COc1ccc(CCNC(=O)[C@@]2(Sc3ccc(C)cc3)CC(=O)N(C3CCCCC3)[C@@H]2c2ccc(CO)cc2I)cc1 do in these assays?
Yeast UUG start: -9; Env fusion inh: 21[16.7 µM]

Of the compounds above, these contain four or more nitrogen atoms.
How did CCCNC(=O)N(C)C[C@H]1Oc2cc(C#Cc3ccccn3)ccc2S(=O)(=O)N([C@H](C)CO)C[C@H]1C do in these assays?
Yeast UUG start: 46; Env fusion inh: -1[16.7 µM]

How did O=C(NCC[C@@H]1CC[C@H](NS(=O)(=O)c2cccc(F)c2)[C@H](CO)O1)c1cnccn1 do in these assays?
Yeast UUG start: -12; Env fusion inh: -6[16.7 µM]

How did COCC(=O)Nc1ccc2c(c1)C(=O)N(C)[C@H]1CC[C@H](CC(=O)Nc3cn(C)nc3C)O[C@H]1CO2 do in these assays?
Yeast UUG start: -23; Env fusion inh: 14[16.7 µM]

How did C[C@H](CO)N1C[C@H](C)[C@H](CN(C)Cc2ccc3c(c2)OCO3)OCCCC[C@H](C)Oc2ccc(NS(=O)(=O)c3cn(C)cn3)cc2C1=O do in these assays?
Yeast UUG start: 12; Env fusion inh: 3[16.7 µM]

How did C[C@@H]1CCCCO[C@@H](CN(C)C(=O)c2ccncc2)[C@H](C)CN([C@H](C)CO)C(=O)c2cc(NS(=O)(=O)c3ccc(Cl)cc3)ccc2O1 do in these assays?
Yeast UUG start: 10; Env fusion inh: -26[16.7 µM]

New compounds follow
What do the screens show for `C[C@@H]1CN([C@H](C)CO)C(=O)c2cccc(NC(=O)c3cnccn3)c2O[C@H]1CN(C)Cc1ccccc1`?
Yeast UUG start: 35; Env fusion inh: 64*[16.7 µM]

How did COCC#Cc1cnc2c(c1)C(=O)N([C@H](C)CO)C[C@@H](C)[C@@H](CN(C)C(=O)C1CC1)O2 do in these assays?
Yeast UUG start: 14; Env fusion inh: -1[16.7 µM]

Results for C[C@H]1CN([C@@H](C)CO)C(=O)c2cc(NC(=O)Nc3ccc(F)cc3)ccc2O[C@H]1CN(C)C(=O)Nc1ccc(C(F)(F)F)cc1 ?
Yeast UUG start: -13; Env fusion inh: -8[16.7 µM]

What do the screens show for `CNC(=O)C[C@H]1CC[C@@H]2[C@H](COc3ccc(NC(=O)Nc4ccccc4F)cc3C(=O)N2C)O1`?
Yeast UUG start: 2; Env fusion inh: -2[16.7 µM]

How did CC(C)NC(=O)N(C)C[C@@H]1Oc2ccc(NC(=O)Nc3ccc(C(F)(F)F)cc3)cc2C(=O)N([C@@H](C)CO)C[C@@H]1C do in these assays?
Yeast UUG start: -5; Env fusion inh: -5[16.7 µM]

Results for CCCNC(=O)C[C@H]1C[C@@H]2c3cc(NC(=O)C4CCOCC4)ccc3O[C@@H]2[C@@H](CO)O1 ?
Yeast UUG start: -11; Env fusion inh: 4[16.7 µM]

How did CCCc1cn(CC[C@@H]2CC[C@H](NC(=O)C3CC3)[C@H](CO)O2)nn1 do in these assays?
Yeast UUG start: -16; Env fusion inh: 7[16.7 µM]

How did C[C@H]1CN([C@@H](C)CO)S(=O)(=O)c2ccc(C3=CCCC3)cc2O[C@H]1CN(C)C(=O)CN(C)C do in these assays?
Yeast UUG start: -3; Env fusion inh: inconclusive

Results for CCCNC(=O)Nc1ccc2c(c1)C(=O)N(C)C[C@H](OC)[C@H](C)CN(C)[C@@H](C)CO2 ?
Yeast UUG start: -1; Env fusion inh: 0[16.7 µM]

What do the screens show for `C[C@H](CO)N1C[C@H](C)[C@@H](CN(C)C(=O)c2ccc(F)cc2)Oc2cc(-c3cccc(C#N)c3)ccc2S1(=O)=O`?
Yeast UUG start: 14; Env fusion inh: -7[16.7 µM]

How did C/C=C/c1ccc2c(c1)O[C@@H](CN(C)C(=O)c1ccccc1F)[C@@H](C)CN([C@H](C)CO)S2(=O)=O do in these assays?
Yeast UUG start: 42; Env fusion inh: 1[16.7 µM]

Results for COc1ccc(CNC(=O)C[C@@H]2C=C[C@H](NC(=O)CN(C)C)[C@@H](CO)O2)cc1 ?
Yeast UUG start: -6; Env fusion inh: -8[16.7 µM]

What do the screens show for `Cc1ccc(S(=O)(=O)Nc2ccc3c(c2)C(=O)N([C@H](C)CO)C[C@H](C)[C@@H](CN(C)Cc2ccccc2)OCCCC[C@H](C)O3)cc1`?
Yeast UUG start: 14; Env fusion inh: 2[16.7 µM]

How did CCCNC(=O)C[C@@H]1CC[C@H]2[C@@H](COc3ccc(NC(=O)C4CCOCC4)cc3C(=O)N2C)O1 do in these assays?
Yeast UUG start: -12; Env fusion inh: -2[16.7 µM]

Results for COc1ccccc1-c1ccc2c(c1)O[C@H](CN(C)CC1CCOCC1)[C@@H](C)CN([C@@H](C)CO)S2(=O)=O ?
Yeast UUG start: 8; Env fusion inh: 6[16.7 µM]

What do the screens show for `COc1ccc(S(=O)(=O)Nc2ccc3c(c2)C(=O)N([C@@H](C)CO)C[C@H](C)[C@H](CN(C)C(=O)Nc2c(C)noc2C)OCCCC[C@H](C)O3)cc1`?
Yeast UUG start: 16; Env fusion inh: -41[16.7 µM]

How did C[C@@H]1CN([C@@H](C)CO)C(=O)c2cc(NS(=O)(=O)c3cccs3)ccc2O[C@@H]1CN(C)CC1CCCCC1 do in these assays?
Yeast UUG start: 6; Env fusion inh: -7[16.7 µM]

How did Cc1noc(C)c1S(=O)(=O)N(C)C[C@H]1OCCCC[C@@H](C)Oc2ccc(NC(=O)Nc3ccc(F)cc3)cc2C(=O)N([C@H](C)CO)C[C@@H]1C do in these assays?
Yeast UUG start: -6; Env fusion inh: -10[16.7 µM]

What do the screens show for `COc1cccc(CNC(=O)C[C@H]2CC[C@H](NC(=O)C3CCOCC3)[C@H](CO)O2)c1`?
Yeast UUG start: -7; Env fusion inh: -18[16.7 µM]

What do the screens show for `C[C@@H]1CN([C@@H](C)CO)S(=O)(=O)c2ccc(C#C[C@@H](C)O)cc2O[C@@H]1CN(C)C(=O)C1CCC1`?
Yeast UUG start: 32; Env fusion inh: -40[16.7 µM]

Results for CC(C)CC#Cc1ccc2c(c1)O[C@@H](CN(C)C(=O)C1CCOCC1)[C@H](C)CN([C@H](C)CO)S2(=O)=O ?
Yeast UUG start: 0; Env fusion inh: -15[16.7 µM]

How did C[C@@H]1CN([C@@H](C)CO)C(=O)c2cc(C#CCc3ccccc3)cnc2O[C@@H]1CN(C)C(=O)C1CCCCC1 do in these assays?
Yeast UUG start: 3; Env fusion inh: -2[16.7 µM]

Results for C[C@H](CO)N1C[C@H](C)[C@H](CN(C)S(=O)(=O)c2ccc(C#N)cc2)Oc2ncc(Br)cc2C1=O ?
Yeast UUG start: -2; Env fusion inh: 21[16.7 µM]

Results for C[C@@H]1CN([C@@H](C)CO)C(=O)c2cc(NC(=O)Nc3ccc4c(c3)OCO4)ccc2O[C@@H](C)CCCCO[C@@H]1CN(C)S(=O)(=O)c1cn(C)cn1 ?
Yeast UUG start: 4; Env fusion inh: 11[16.7 µM]

How did C[C@H]1CN([C@@H](C)CO)C(=O)c2cc(C#Cc3ccncc3)cnc2O[C@@H]1CN(C)CC1CCOCC1 do in these assays?
Yeast UUG start: -2; Env fusion inh: -22[16.7 µM]

What do the screens show for `C[C@H]1CN([C@@H](C)CO)C(=O)Cc2cc(NC(=O)Nc3ccccc3)ccc2O[C@H]1CN(C)C(=O)Nc1cccc2ccccc12`?
Yeast UUG start: 3; Env fusion inh: -2[16.7 µM]

What do the screens show for `C[C@H]1CN([C@@H](C)CO)C(=O)c2cc(-c3ccc(F)cc3)cnc2O[C@H]1CN(C)C(=O)c1ccccc1F`?
Yeast UUG start: -4; Env fusion inh: -13[16.7 µM]

Results for CN1C(=O)c2cc(NC(=O)C3CC3)ccc2OC[C@H]2O[C@@H](CC(=O)NCC3CCCCC3)CC[C@H]21 ?
Yeast UUG start: 3; Env fusion inh: -22[16.7 µM]

What do the screens show for `N#C[C@H]1[C@@H](c2ccc(C3=CCCCC3)cc2)[C@H](CO)N1S(=O)(=O)c1cccc(F)c1`?
Yeast UUG start: -13; Env fusion inh: 43[16.7 µM]

What do the screens show for `CNC[C@H]1Oc2cc(C#Cc3cccc(F)c3)ccc2S(=O)(=O)N([C@@H](C)CO)C[C@@H]1C`?
Yeast UUG start: 10; Env fusion inh: 22[16.7 µM]

What do the screens show for `COc1ccc(NC(=O)N(C)C[C@H]2Oc3ccc(NS(=O)(=O)c4cn(C)cn4)cc3CC(=O)N([C@H](C)CO)C[C@@H]2C)cc1`?
Yeast UUG start: 0; Env fusion inh: -8[16.7 µM]

What do the screens show for `COCCNC(=O)C[C@H]1CC[C@@H]2[C@@H](COc3ccc(NC(=O)C4CCCC4)cc3C(=O)N2C)O1`?
Yeast UUG start: -1; Env fusion inh: -12[16.7 µM]

How did COc1cccc(S(=O)(=O)Nc2ccc3c(c2)OC[C@H](C)NC[C@@H](C)[C@@H](OC)CN(C)C3=O)c1 do in these assays?
Yeast UUG start: -11; Env fusion inh: -26[16.7 µM]

Results for CCC(=O)Nc1ccc2c(c1)OC[C@H](C)N(C(=O)CN(C)C)C[C@@H](C)[C@H](OC)CN(C)C2=O ?
Yeast UUG start: -14; Env fusion inh: 7[16.7 µM]

Results for CCCNC(=O)C[C@@H]1CC[C@@H]2[C@H](COc3ccc(NC(=O)Nc4ccccc4)cc3C(=O)N2C)O1 ?
Yeast UUG start: 3; Env fusion inh: 11[16.7 µM]

How did C[C@@H]1CN([C@@H](C)CO)S(=O)(=O)c2ccc(-c3cncnc3)cc2O[C@H]1CN(C)C(=O)c1cccc(F)c1 do in these assays?
Yeast UUG start: 15; Env fusion inh: -14[16.7 µM]

How did CNC[C@H]1Oc2cc(C#CCOC)ccc2S(=O)(=O)N([C@H](C)CO)C[C@@H]1C do in these assays?
Yeast UUG start: 4; Env fusion inh: -7[16.7 µM]

What do the screens show for `COCC(=O)Nc1ccc2c(c1)[C@H]1C[C@H](CC(=O)NCCc3ccccc3)O[C@@H](CO)[C@H]1O2`?
Yeast UUG start: -3; Env fusion inh: 8[16.7 µM]

How did CCCC#Cc1cnc2c(c1)C(=O)N([C@@H](C)CO)C[C@H](C)[C@@H](CN(C)S(C)(=O)=O)O2 do in these assays?
Yeast UUG start: 4; Env fusion inh: 2[16.7 µM]

What do the screens show for `C[C@H](CO)N1C[C@H](C)[C@H](CN(C)C(=O)CCCN(C)C)OCCCC[C@H](C)Oc2ccc(NC(=O)Nc3ccc(C(F)(F)F)cc3)cc2C1=O`?
Yeast UUG start: 34; Env fusion inh: 0[16.7 µM]

What do the screens show for `CC(C)C#Cc1cnc2c(c1)C(=O)N([C@H](C)CO)C[C@@H](C)[C@@H](CN(C)C(=O)Cc1ccncc1)O2`?
Yeast UUG start: 1; Env fusion inh: -30[16.7 µM]

What do the screens show for `CC(C)C#Cc1cnc2c(c1)C(=O)N([C@@H](C)CO)C[C@H](C)[C@H](CN(C)C(=O)c1ccc3c(c1)OCO3)O2`?
Yeast UUG start: 6; Env fusion inh: 12[16.7 µM]

What do the screens show for `CO[C@H]1CN(C)C(=O)c2cc(NS(C)(=O)=O)ccc2OC[C@H](C)N(C(=O)C2CCC2)C[C@@H]1C`?
Yeast UUG start: -13; Env fusion inh: -3[16.7 µM]
